LT uptake inh – inhibitors of anthrax lethal toxin internalization; 70,000 tested, 0.67% active; Potency, µM (highest dose often 40 µM), without a hit: at the top dose activity change, negative = inhibition, actives largely listed as inhibitors; Cells, anthrax lethal toxin internalization, FRET ratio (460/530); active = well fitted falling ratio curve with the 530 nm signal flat; inconclusive = other ratio curves, or a change in one channel alone; inactive = flat curves in the ratio and both channels; the % refers to the ratio; further: on the % scale 0 is the no-effect control and ±100 the full control effect; nearly all actives have a fitted effect of over 50% in size; tested in ME-180 cells; beta-lactamase reporter
SmPrx2 inh – inhibitors of Schistosoma mansoni peroxiredoxin 2; S. mansoni Prx2 activity coupled to TGR/GSH (TGR is thioredoxin glutathione reductase), NADPH fluorescence loss, qHTS; some inactives read as strong as hits; Potency, µM; 65,000 tested, 0.07% active; AID 448; active means full or partial inhibition curve with a strong effect at the top dose; inconclusive means weaker partial or single-point curve; inactive means no accepted curve; further: series up to 57 µM; many of its hits are not listed in these tables
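qHTS, coupled TGR/Prx2 format; 15 min compound preincubation at RT; reaction started with H2O2 (2.5 mM aliquot); kinetic NADPH fluorescence decrease, ex 365/em 450 nm.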
An asterisk follows results filed as active; ? = inconclusive; nt = not tested or not shown; & = joins results of further samples; ! = not confirmed by another sample; [ ] = another dose, or the depositor's remark. Potency means the concentration at half of the fitted maximal effect. The list is partial. The share of hits here may be higher or lower than overall.

SMILES	LT uptake inh	SmPrx2 inh
CCOC(=O)c1ccccc1NC(=O)CC1SC(=NC)N(C)C1=O (centres undefined)	-16.9%	>57
CS(=O)(=O)N(CC(=O)NCc1ccncc1)c1cc(Cl)cc(Cl)c1	-14.2%	nt
CCCn1c(SCC(=O)N2CCc3ccccc32)nnc1-c1ccco1	-2.3%	nt
CN(Cc1ccccc1)Cc1nc2c(c(=O)n(C)c(=O)n2C)n1CCc1ccccc1	0.2%	>57
COc1ccc2c(=O)c3c(=O)n(Cc4ccco4)c(-c4ccc(C)cc4)nc3oc2c1	-2.5%	>57
CCOCCCNC(=O)CCNS(=O)(=O)c1ccc(C)cc1	7.9%	>57
CCOC(=O)COc1ccc2c(c1)C(=O)CC(C)(C)O2	-6.7%	>57
Cc1nn(-c2ccccc2)c(C)c1C(=O)OCC(=O)NC(=O)NC1CCCCC1	-10.9%	>57
CCC(=O)Nc1c(C#N)c2nc3ccccc3nc2n1-c1ccc(C)cc1	nt	>57
CC(=O)Nc1ccc(S(=O)(=O)N(CC(=O)O)Cc2ccccc2)cc1	-9.7%	nt
O=C(OCc1nc2ccccc2s1)c1cccc(S(=O)(=O)N2CCOCC2)c1	-13.2%	>57
CCn1c2c(c3ccc(OC)cc31)CCCC2=O	-29.7%	>57
Cc1csc(SC(C)C(=O)Nc2ccc(S(=O)(=O)N3CCCC3)cc2)n1 (centres undefined)	8.4%	>57
CCOC(=O)CC12CN3CN(C1)CC(CC(=O)OCC)(C3)C2=O	-6.2%	>57
CSc1nnc(-c2sc3cc(Cl)ccc3c2Cl)n1C	1.5%	>57
CCOC(=O)c1sc(NC(=O)c2ccc(S(=O)(=O)N3CCOCC3)cc2)cc1C	-22.4%	?
Cc1cnc(NC(=O)CSc2nnc(-c3ccccc3)n2Cc2ccccc2)s1	-5.7%	nt
O=C(Nc1ccc(CCC(=O)N2CCCC2)cc1)c1ncn[nH]1	-3.2%	>57
CC1(C)Oc2ccc3ccc(=O)oc3c2/C(=C/Nc2ccccn2)C1=O	-9.0%	nt
COC(=O)c1nc(C(=O)OC)c(C(=O)OC)nc1C(=O)OC	-9.4%	>57
Cn1c(=O)c2c(nc(CN3CCN(c4ccc(F)cc4)CC3)n2CCN2CCOCC2)n(C)c1=O	?	>57
COc1ccc(CCNS(=O)(=O)c2ccc3c(c2)OCCO3)cc1OC	1.2%	nt
Cc1cc(C)c(C#N)c(SCC(O)CS(=O)(=O)Cc2ccccc2)n1 (centres undefined)	-12.5%	>57
CCc1nc(NCC2CCCO2)c2oc3ccccc3c2n1 (centres undefined)	12.2%	>57
CNC(=O)CSc1nnc(-c2cc(C)cc(C)c2)o1	-4.9%	>57
CCn1c(=O)cc(OCC(=O)NCc2ccco2)c2ccccc21	-19.7%	>57
COc1ccc(OC)c(C(c2nnnn2Cc2ccccc2)N2CCN(C3CCCCC3)CC2)c1 (centres undefined)	3.6%	>57
C=CC[C@@H]1C=C[C@@H](O/N=C\C[C@@H]2C=C[C@H](OC(C)=O)[C@H](COC(C)=O)O2)[C@@H](CO)O1	-9.5%[8 µM]	nt
c1ccc2c(-c3nc4ncccc4o3)cccc2c1	?	>57
CCN1C[C@@]2(C)CC[C@H](O)[C@@]34[C@@H]5C[C@H]6[C@H](O)[C@@H]5[C@](O)(C[C@@H]6OC)[C@H](C[C@@H]23)[C@H]14	?	>57
Cc1cc(C(=O)CSc2n[nH]c(N)n2)c(C)n1-c1cc(F)ccc1F	-5.6%	>57
Cc1[nH]c2ccccc2c1SCC(=O)N1CCOCC1	8.3%	>57
CC(C)(C)NC(=O)CSc1nncn1NCc1ccccc1	?	>57
Cc1cc(NC(=O)CSc2nc(-c3ccc(F)cc3)cs2)no1	-1.9%	>57
CCOc1ccc(NCC2CCOC(C)(C)C2)cc1 (centres undefined)	?	>57
CN(Cc1ccco1)c1ccnc(-c2ccccc2C(F)(F)F)n1	-5.9%	>57
O=C(O)c1cccc(Cn2cccn2)c1	-26.4%	>57
COC(=O)c1cc2c(C)nn(-c3ccccc3)c2s1	?	>57
CCOC(=O)COc1ccc2nsnc2c1Cl	-5.4%	>57
COC(=O)c1ccccc1NC(=O)CCNC(=O)Cn1cnc2ccccc2c1=O	-0.1%	>57

Four compounds out of the list, arranged by number of heavy atoms, falling.
SMILES	LT uptake inh	SmPrx2 inh
CCN1C[C@@]2(C)CC[C@H](O)[C@@]34[C@@H]5C[C@H]6[C@H](O)[C@@H]5[C@](O)(C[C@@H]6OC)[C@H](C[C@@H]23)[C@H]14	?	>57
Cc1[nH]c2ccccc2c1SCC(=O)N1CCOCC1	8.3%	>57
CNC(=O)CSc1nnc(-c2cc(C)cc(C)c2)o1	-4.9%	>57
O=C(O)c1cccc(Cn2cccn2)c1	-26.4%	>57

(list continues)
SMILES	LT uptake inh	SmPrx2 inh
Cc1c(NC(=O)NCCN2C(=O)C3C4C=CC(C4)C3C2=O)c(=O)n(-c2ccccc2)n1C (centres undefined)	3.2%	>57
O=C(OCN1C(=O)c2ccccc2C1=O)c1ccco1	3.5%	nt
COC(=O)CC1SC(=O)NC1=Nc1ccccc1 (centres undefined)	-2.8%	nt
O=C(c1ccncc1)N(Cc1ccccc1)Cc1nc2ccccc2c(=O)[nH]1	?	>57
NC(=O)c1oc2ccccc2c1NC(=O)CN1CCCCC1	?	>57
Cc1cccn2c(=O)c3cc(C(=O)N4COCC4(C)C)n(C)c3nc12	15.7%	>57
COC(=O)Nc1nn(Cc2ccccc2F)cc1Br	7.5%	>57
CCCC(=O)N(c1ccc2oc(=O)sc2c1)S(=O)(=O)c1cccs1	?	>57
NC(=O)Cn1c(=O)oc2ccccc21	4.5%	>57
O=C(CCCNS(=O)(=O)c1cccs1)N1CCN(c2cccc(Cl)c2)CC1	-17.5%	>57
O=C(c1cc(-c2ccccc2)nc2ccccc12)N1CCOCC1	9.1%	nt
O=C(Nc1ccccc1C(=O)NC1CCCC1)NC1CCCC1	-4.6%	>57
CCOC(=O)c1cc(-c2ccc3c(c2)OCO3)nc2onc(C)c12	-12.9%	>57
Cc1ccc2nc(SCC(=O)O)nc(C)c2c1	?	>57
CC1(C)CC(=O)N(CC(=O)O)c2ccccc2S1(=O)=O	-7.0%	>57
O=C(CCNC(=O)c1ccc(Br)o1)NCc1ccccn1	-5.3%	>57
COc1ccc(NC2CC(=O)N(c3ccccc3)C2=O)cc1 (centres undefined)	nt	>57
COc1ccc(CNC(=O)c2cnc3scc(C)n3c2=O)cc1	-10.0%	>57
O=C(CCc1n[nH]c(=O)[nH]c1=O)N1CCCCC1	4.9%	>57
CCn1c2ccccc2c2nnc(SCCCn3c(=O)[nH]c4ccccc43)nc21	7.94µM*	nt
COc1cc2c(C(=O)N3CCN(Cc4ccc5c(c4)OCO5)CC3)cn(C)c(=O)c2cc1OC	3.0%	>57
COc1ccccc1-c1c(C)nn2c(N3CCC4(CC3)OCCO4)cc(C)nc12	-9.1%	>57
Oc1ccccc1NCC(O)Cn1ccc2ccccc21 (centres undefined)	?	>57
Cc1cc(=O)oc(C)c1C(=O)NCCCN1CCN(c2ccccc2F)CC1	-1.5%	>57
Cc1cc(C)cc(N(CC(=O)N2CCn3c2nc2ccccc23)S(=O)(=O)c2c(C)noc2C)c1	?	>57
CC(C)n1c(=S)[nH]c2c1c(=O)[nH]c(=O)n2C	-6.3%	>57
Cn1c2c(c(=O)n(C)c1=O)CN(CC1CCCO1)CN2 (centres undefined)	5.5%	>57
NC(=O)c1cc[n+](CC2=C(C(=O)O)N3C(=O)[C@@H](NC(=O)[C@H](c4ccccc4)S(=O)(=O)[O-])[C@@H]3SC2)cc1	3.7%[3.58 µM]	>57&>25.6
COCCNC(=O)CN(c1cc(C(F)(F)F)ccc1Cl)S(C)(=O)=O	-11.5%	>57
O=C(N/N=C1/C[C@@H](O)[C@@H](O)[C@@H]2[C@@H]3C(=O)N(c4cccc(Oc5ccccc5)c4)C(=O)[C@H]3CC[C@H]12)OCc1ccccc1	-9.9%[8 µM]	nt
O=C(c1ccccc1)N1CCN(C(=O)C23CC4CC(CC(C4)C2)C3)CC1	10.9%	>57
Cc1onc(-c2c(F)cccc2Cl)c1C(=O)NCCc1ccc(S(N)(=O)=O)cc1	4.4%	>57
COc1ccc(N2Cc3cccc(C(=O)N4CCOCC4)c3C2=O)cc1	-0.2%	>57
Cc1c(Br)c(C(F)(F)F)nn1CC(=O)NCCN1CCOCC1	-10.6%	nt
O=C(NC1CCCC1)C(NS(=O)(=O)c1cccc2nsnc12)c1ccccc1 (centres undefined)	3.2%	>57
COc1cc(C(=O)OCC(=O)Nc2c(F)c(F)c(F)c(F)c2F)cc(OC)c1OC	2.5%	>57
CC(=O)c1c(C)[nH]c(C(=O)NCc2cccs2)c1C	0.6%	>57
Cc1cc(Cl)c(S(N)(=O)=O)cc1OCC(N)=O	?	>57
CCCSc1nc2c(c(=O)[nH]c(=O)n2C)n1C	-5.1%	>57
O=C(Nc1cccc(F)c1)N1CCC2(CC1)CCN(C(=O)c1cnccn1)CC2	6.2%	>57

Overlap with the part before: five compounds, followed by the next part.
SMILES	LT uptake inh	SmPrx2 inh
COc1cc(C(=O)OCC(=O)Nc2c(F)c(F)c(F)c(F)c2F)cc(OC)c1OC	2.5%	>57
CC(=O)c1c(C)[nH]c(C(=O)NCc2cccs2)c1C	0.6%	>57
Cc1cc(Cl)c(S(N)(=O)=O)cc1OCC(N)=O	?	>57
CCCSc1nc2c(c(=O)[nH]c(=O)n2C)n1C	-5.1%	>57
O=C(Nc1cccc(F)c1)N1CCC2(CC1)CCN(C(=O)c1cnccn1)CC2	6.2%	>57
Cc1noc(C)c1S(=O)(=O)N1CCC(C(=O)NCCC2=CCCCC2)CC1	-9.0%	?
Cc1[nH]nc2c1C(Cc1ccccc1)C(C#N)=C(N)O2 (centres undefined)	-14.7%	>57
CCOc1ccc(CN2CCC(=O)NC2=O)cc1	-5.4%	>57
c1coc(Cn2nnnc2CN2CCN(C3CCCCC3)CC2)c1	11.0%	>57
CCCCN(CC)S(=O)(=O)c1ccc(C(=O)Nc2nnc(-c3ccccc3Cl)o2)cc1	11.1%	>57
CCc1nnc(SCC(=O)N2CCCc3ccccc32)nc1CC	1.3%	>57
COc1ccccc1-c1cncnc1N1CCN(C)CC1	-9.1%	>57
CCOc1ccc2[nH]c(C)cc(=O)c2c1	-11.3%	>57
CCOc1cc(NC(=O)C2CC2)c(OCC)cc1NC(=O)c1ccccn1	-3.4%	>57
Cc1c(C(=O)NC(C)CN2CCCCC2)oc2ccccc12 (centres undefined)	11.5%	>57
COC(=O)c1c(C)[nH]c(C)c1-c1ccccc1	?	>57
COc1ccc(OC)c(NC(=O)C2CCC(CNc3c(N4CCC(C)CC4)c(=O)c3=O)CC2)c1 (centres undefined)	14.8%	>57
COCCn1nnnc1C(c1ccc(OC)cc1OC)N1CCN(c2ccccc2F)CC1 (centres undefined)	3.0%	>57
Cn1c(=O)c2c(nc(SC3C(=O)CC(C)(C)CC3=O)n2C)n(C)c1=O	7.8%	>57
CCCCOCCCNC(=O)N[C@H](C(=O)OC)C(C)C	2.3%	>57
COc1ccc(-c2nnc(SCC(=O)c3[nH]c(C)c(C(C)=O)c3C)o2)cc1	-5.5%	>57
O=C(CSc1nnc(CNc2ccc(F)cc2)n1Cc1ccccc1)N1CCOCC1	-9.7%	>57
CCOc1ccc(N2C(=O)c3ccc(C(=O)OCc4c(C)noc4C)cc3C2=O)cc1	8.4%	>57
Cc1ccc(N2CC(C(=O)Nc3nnc(C(C)C)s3)CC2=O)cc1 (centres undefined)	3.7%	>57
O=C(CN(CCc1ccccc1)C(=O)CNS(=O)(=O)c1ccccc1)NCc1ccco1	-7.3%	>57
O=C(O)c1ccccc1Nc1cccc(OCc2ccc3ccccc3n2)c1	15.8µM*!	>57&>57
CCOC(=O)N1CCC(NC(=O)CC(NS(=O)(=O)c2ccc(Cl)cc2)c2ccco2)CC1 (centres undefined)	16.0%	>57
COC(=O)c1cc(NC(=O)C2COc3ccccc3O2)ccc1Cl (centres undefined)	-14.3%	>57
COc1ccc(N(C(=O)C2CCCCC2)C2C=CS(=O)(=O)C2)c(OC)c1 (centres undefined)	-11.5%	>57
CC(Sc1nc2ccccc2o1)C(=O)O (centres undefined)	-0.4%	>57
CCOc1cc(C=O)ccc1O	23.0%	nt
COC(=O)C1=C(C)Nc2nnnn2C1c1ccco1 (centres undefined)	-0.5%	>57
C[C@@]12CC[C@H](O)C[C@@H]1CC[C@@H]1[C@@H]2CC[C@@]2(C)[C@@H](C3=CC(=O)OC3)[C@H](O)C[C@]12O	?	>57
COc1ccc(C(=O)NC(=O)CSc2nnc(-c3ccco3)n2-c2ccccc2)cc1	-6.5%	>57
N#CCn1nnc(-c2ccc3c(c2)OCO3)n1	-22.6%	>57
CCOCC(=O)Nc1ccccc1C(=O)OCC	0.5%	>57
COc1cccc(C(=O)Nc2ccc(NC(=O)C(C)(C)C)cn2)c1	-4.3%	>57
COc1ccc(-n2c(=O)c(-c3cccs3)nc3cncnc32)cc1	5.0%	>57
CCCc1nc2c(nnn2Cc2ccccc2)c(=O)[nH]1	6.1%	>57
CCN(CCCNC(=O)Cn1ncc2c(=O)oc3ccccc3c21)c1cccc(C)c1	-16.2%	>57
COc1cccc(C(=O)Nc2ccccc2N2CCOCC2)c1	8.6%	>57
CCOC(=O)c1[nH]c(C)c(C)c1C	-12.5%	>57
COc1ccc(OC)c(-c2cc(C(=O)Nc3cccc(Cl)c3)no2)c1	?	>57
Cc1ccc(-n2ncc3c(=O)n(CC(=O)NCc4ccco4)cnc32)cc1C	-4.3%	>57

Screens as filed in PubChem BioAssay.
